PABP FP inh: PABP-poly(A) binding inhibition. PABP-poly(A) RNA binding, fluorescence polarization. inhibition, % at 35 µM. actives 1% (n = 290,000). AID 2014;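 active = 50% or more with normal probe brightness, or confirmed in later tests; inconclusive = above 50% with abnormal brightness, or retests that disagree; inactive = below 50% or failed in later tests; about a fifth of its hits are not listed in these tables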;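 also: calls also rest on retests at 20 µM and on dose response follow-up; controls were probe without protein and protein plus probe with vehicle; some compounds called inactive have numbers as strong as hits; many hits fall short of the cut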
CSC inhib: cancer stem cell inhibition. cancer stem cell-like cells viability, luminescence. inhibition, % at 7.5 µM. actives 1.1% (n = 300,000);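 active = mean at 75% or more and at least half the replicates too; inconclusive = mean and replicates disagree; tested in HMLE shEcad cells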;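 also: 0% = median of negative and 100% = median of positive control wells; the first replicate is given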
Yeast UUG start: modulators of start codon recognition fidelity in yeast. S. cerevisiae UUG-firefly luciferase reporter, luminescence/redox ratio. activity score, % at 18.7 µM. actives 0.13% (n = 350,000);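 active = replicate mean at a twofold rise or more, about +100% in these data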;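 also: firefly luciferase made from a UUG start codon reports start codon fidelity; reporter light over untreated wells divided by growth signal over untreated wells; some hits fall short of that in this replicate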
Rce1 inh: yeast Ras-converting enzyme inhibition. actives 0.27% (n = 290,000). calls only. AID 2563. Q03530. yeast membranes, quenched prenylated peptide cleavage fluorescence;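 active = fall in fluorescence gain of 50% or more versus controls, with final raw signal at or below 3038400; inconclusive = same 50% fall but final raw signal above 3038400; inactive = fall in fluorescence gain under 50%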;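 also: plate controls were neutral control wells for no effect and wells lacking membranes for full effect; tested at 10 µM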
Target sequence (Q03530 whole entry, looked up): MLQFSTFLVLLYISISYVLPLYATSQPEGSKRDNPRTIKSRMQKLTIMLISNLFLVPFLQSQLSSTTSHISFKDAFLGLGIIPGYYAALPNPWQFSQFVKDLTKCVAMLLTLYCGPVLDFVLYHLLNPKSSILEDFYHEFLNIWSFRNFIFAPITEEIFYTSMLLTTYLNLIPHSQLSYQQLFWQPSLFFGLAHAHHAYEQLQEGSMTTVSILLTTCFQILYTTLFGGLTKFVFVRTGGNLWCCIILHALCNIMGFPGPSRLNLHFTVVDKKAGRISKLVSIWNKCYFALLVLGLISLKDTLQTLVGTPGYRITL
MT1-MMP act inh: MT1-MMP (human) activation inhibition; P50281; HT1080 RFP-PRO-GFP cells, GFP/RFP ratio fluorescence, overnight; percent of plate control window, DMSO zero; GFP/RFP ratio change, % at 20 µM; actives 0.061% (n = 360,000);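 active = GFP/RFP ratio change of at least 30% with cell ATP level not reduced by more than half and red fluorescence within 50% of control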; also: strong numbers were not always called active
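Assay system: HT1080 cells carrying an RFP-PRO-GFP reporter | Dosing: Single dose of 20 µM compound, 1% DMSO final | Incubation: Cells overnight before dosing, compound overnight, 37 °C, 5% CO2 | Evaluation: GFP/RFP fluorescence ratio | Control set: DMSO and RFP-L50D-GFP cell wells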
Env fusion inh: blocks HIV Env-driven cell-cell fusion; HeLa-JRFL Env/CEM21 cell fusion, luciferase; inhibition, % at 12.3 µM; actives 1.1% (n = 360,000);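 active = mean replicate inhibition score of at least 50 and every replicate individually at or above 50; inconclusive = only one of the two criteria met; inactive = mean below 50 and not all replicates reaching 50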;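 also: 0% = plate neutral controls and 100% = maraviroc near 300 nM; one replicate is shown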
eIF4H inh: inhibitors of RNA binding by human eIF4H; Q15056; eIF4H fluorescence polarization binding assay; inhibition, % at 35 µM; actives 0.94% (n = 290,000); AID 2012;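 active = 50% or more with normal probe brightness, or confirmed in later tests; inconclusive = above 50% with abnormal brightness, or retests that disagree; inactive = below 50% or failed in later tests; about a fifth of its hits are not listed in these tables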;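 also: calls also rest on retests at 20 µM and on dose response follow-up; 0% = protein and probe with vehicle and 100% = probe without protein; strong numbers were not always called active; many hits fall short of the cut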
eIF4H inh retest: second read-out of eIF4H inh, no call of its own (marks repeat the call); inhibition, %; compound at 20 µM; confirmation average;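 mean of two retest wells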
PABP FP inh retest: further read-out of PABP FP inh, marked with its call; inhibition, %; compound at 20 µM; confirmation repeats;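 mean of two retest wells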
MT1-MMP act inh RFP: further read-out of MT1-MMP act inh, marked with its call; RFP signal change, %; measured here: RFP expression control read;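 0 = vehicle wells; hits needed this value within 50% of zero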
An asterisk follows results filed as active; i = inactive; ? = inconclusive; nt = not tested or not shown; & = joins results of further samples; [ ] = another dose, or the depositor's remark.

SMILES	PABP FP inh	CSC inhib	Yeast UUG start	Rce1 inh	MT1-MMP act inh	MT1-MMP act inh RFP	Env fusion inh	eIF4H inh	others
CC(SCc1ccccc1)C(=O)NC1CCCC1 (stereo not drawn)	4	7	-24	i	-4	0	-35	-2
CC(C)(C)n1nnnc1C(c1cccnc1)N1CCOCC1 (stereo not drawn)	-2	nt	6	i	0	1	21	1
COc1ccc(C(C)=O)cc1COc1ncnc2ccccc12	-10	-3	nt	i	2	-3	-4	-2
CC(C)(C)OC(=O)N1CCN(C(=O)OCC2c3ccccc3-c3ccccc32)CC1C(=O)O (stereo not drawn)	nt	7	-11	i	2	0	-9	nt
O=C(c1ccco1)n1nc(-c2ccc(Cl)cc2)nc1NCc1ccco1	-4	-4	7	i	4	-5	-104	10
CCOC(=O)c1oc2ccccc2c1COC(=O)CNC(=O)c1ccco1	nt	-7	nt	i	-1	1	-9	nt
CCOC(=O)N1CCN(C(=O)CSc2ccccc2)CC1	5	-5	1	i	-1	7	10	1
C=CCn1c(SCC(=O)Nc2nncs2)nnc1-c1ccco1	-5	nt	-16	i	3	3	9	-6
S=c1[nH]nc(C2CCCCC2)n1/N=C/c1ccc(Cl)cc1	-3	8	4	i	2	5	9	-14
O=C(O)c1ccc(N2C(=O)CC(N3CCN(c4cccc(Cl)c4)CC3)C2=O)cc1 (stereo not drawn)	7	12	-6	i	-3	3	10	-6
O=c1oc(Nc2ccc(F)cc2)nc2ccccc12	-2	-2	-11	i	-1	0	nt	-6
Cc1ccc(/C=N/NC(=O)C2CC(=O)N(c3ccccc3)C2)s1 (stereo not drawn)	-10	-5	nt	i	0	0	nt	2
Cc1cc(C)cc(NC(=O)N2CCC(C(=O)c3ccc(F)cc3)CC2)c1	-14	-2	nt	i	-7	-10	5	-6
CCOc1c(Br)cc(/C=N\NC(=O)c2ccccc2)cc1OC	0	20	nt	i	4	1	-4	-4
CC1CC(C)(C)CC2(C1)NC(=O)N(CC(=O)Nc1ccc(N3CCCCC3)cc1)C2=O (stereo not drawn)	-13	0	-7	nt	4	1	-18	1
CN1CCC(N(C)C(=O)c2cc(S(=O)(=O)N3CCOCC3)ccc2Cl)CC1	nt	-6	-25	nt	0	6	8	nt
COc1ccc(NC(=S)NC(=O)Cc2ccccc2)c(OC)c1	-1	-3	-10	i	-4	-6	12	-7
C=CCOc1ccc(C(=O)n2cc(C(=O)OC)c3ccccc32)cc1	1	-2	-16	i	0	-1	-133	-2
COc1ncnc2c1ncn2CCCN(C)Cc1ccco1	nt	nt	-12	nt	3	1	-17	nt
C=CCc1c(OC)ccc2ccc(=O)oc12	-3	-3	-10	i	-1	2	nt	0
CCOc1ccc(NC(=O)CSc2nc3c(c(=O)n2-c2ccccc2OC)SCC3)cc1	-6	2	-12	i	5	-4	-39	-5
CC(C)(C)n1nnnc1C(C1CC1)N1CCN(C/C=C/c2ccccc2)CC1 (stereo not drawn)	nt	nt	-20	nt	0	4	0	nt
Cc1ccccc1CN1C(=O)Nc2ccccc2C(=O)N1C(C)(C)C	-3	8	-21	i	-8	1	18	-6
O=C(CCC(=O)OCc1ccc(C(=O)Oc2ccccc2)cc1)Nc1cccc2ccccc12	-13	-8	-8	i	3	4	nt	-4
O=S(=O)(NCCOc1ccc(F)cc1)c1ccc2c(c1)OCCO2	-1	15	-14	i	6	4	?	-3
CCCOc1ccc(C(C)=O)cc1CSCCC#N	4	-9	-10	i	-2	-3	nt	-2
CC(C)CNC(=O)C1(C)CCCN1C(=O)c1csnn1 (stereo not drawn)	nt	nt	-23	nt	1	2	-13	nt
Cc1ccc(C)c(S(=O)(=O)Nc2ccc(O)c(Sc3ncn[nH]3)c2)c1	55*	-10	nt	i	-1	-3	-7	79*
CC(C)N(C(=O)[C@H]1C[C@H](CC(=O)NCc2cccc(C(F)(F)F)c2)C(=O)N2CCc3c([nH]c4cc(CCC(=O)N(C)C)ccc34)[C@]12C)C(C)C	nt	nt	21	nt	-4	-6	16	nt
CCN1C/C(=C\c2cccc([N+](=O)[O-])c2)C(=O)/C(=C/c2cccc([N+](=O)[O-])c2)C1	-10	nt	-1	nt	-17	-37	nt	-3
Cc1cc(SCC(=O)NCCN2C(=O)CSC2=O)nc2ccccc12	6	-15	nt	i	4	6	-1	-6
CCOC(=O)C1=CCC(c2cccc3ccccc23)N(S(=O)(=O)c2ccc(C)cc2)C1 (stereo not drawn)	nt	nt	-12	nt	-2	-12	6	nt
CCCC(=O)c1cc2c(cc1NC(=O)c1ccccc1F)OCCO2	16	-7	nt	i	-3	2	-22	-2
COc1cccc2cc(C(=O)NC(C)C3CCCO3)c(=O)oc12 (stereo not drawn)	-19	-15	-16	i	1	4	-53	-2
COc1ccccc1C#Cc1cnc2c(c1)C(=O)N([C@H](C)CO)C[C@H](C)[C@@H](CN(C)S(=O)(=O)c1cn(C)cn1)O2	nt	nt	9	nt	0	-1	-3&13[16.7 µM]	nt
CCN1CCN(c2ccc(S(=O)(=O)N3CCOCC3)cc2NC(=O)C(C)Oc2ccc(Cl)cc2)CC1 (stereo not drawn)	nt	10	nt	i	-4	-2	8	nt
CCNc1c([N+](=O)[O-])ncn1C	-1	-12	-9	i	6	4	nt	-4
O=C(NCC1CCCO1)c1c(O)c2c([nH]c1=O)CCCC2 (stereo not drawn)	-3	6	-8	i	8	3	-130	-5
CNc1oc(-c2cccc3ccccc23)nc1C#N	0	5	0	i	-2	-1	nt	4
N#CCCN(C(=O)COC(=O)c1nc(Cl)ccc1Cl)c1ccccc1	nt	-8	nt	i	-1	2	5	nt
CC1CCc2c(nc3ncnn3c2Nc2ccc(OC(F)(F)F)cc2)C1 (stereo not drawn)	10	-13	-7	i	-3	-9	nt	8
CCCC1N2CC3([N+](=O)[O-])CN1CC([N+](=O)[O-])(C2)C3(C)C (stereo not drawn)	-2	-9	nt	i	-6	-3	14	-9
COc1ccc(Nc2ccc([N+](=O)[O-])cn2)cn1	40*	-2	-18	i	17	15	-9	82	eIF4H inh retest=20;PABP FP inh retest=54*
N#Cc1cccn1-c1nccs1	-10	-6	nt	i	-2	2	-143	9
Oc1ccccc1C1=Nc2ncnn2C(c2ccccc2)C1 (stereo not drawn)	22	nt	-19	i	-3	-7	2	2
Cc1cc(C)c(C(=O)N2CCCC(C(=O)c3cc(F)ccc3F)C2)o1 (stereo not drawn)	2	-11	nt	i	-7	-1	-5	-14
CN1/C(=C/c2cc[n+](C)c3ccccc23)C=Cc2ccccc21	-1	nt	nt	nt	64*	9.4*	nt	9
O=C(COC(=O)/C=C/c1ccccc1[N+](=O)[O-])NC(=O)NC1CCCC1	nt	nt	86	nt	-1	0	32	nt
O=C(O)c1ccc(-c2nc3ccccc3[nH]2)cc1	8	nt	nt	i	6	7	10	-1
CC(=O)NN1C(=O)/C(=C/c2ccc(C(C)C)cc2)SC1=S	-5	27	nt	i	6	7	-5	-2
COc1cc([N+](=O)[O-])ccc1NC(=O)CN(C)C	-5	-4	-14	i	-4	1	nt	0
Cc1ccc(S(=O)(=O)NCC2CCC(C(=O)NCCCN3CCOCC3)CC2)cc1 (stereo not drawn)	10	-7	-6	i	-5	-4	nt	-1
COc1ccc2c(Cl)c(C(=O)NCc3ccco3)sc2c1	1	nt	-10	i	6	3	-162	-1
Cc1nn(-c2ccccc2)c(C)c1C(=O)OCC(=O)Nc1cccc(S(N)(=O)=O)c1	nt	nt	-11	nt	-9	-5	1	nt
O=C(NCc1ccco1)Nc1cccc2ccccc12	nt	nt	7	nt	4	6	-6	nt
O=C1N[C@H](Cc2ccccc2)COC(=O)[C@@H](Cc2ccc(F)cc2)C/C=C\C[C@H]1CC(=O)N(CCO)Cc1ccccc1	nt	nt	-11	nt	9	-5	-178	nt
N#C/C(=C/c1cn(-c2ccccc2)nc1-c1cccc(OCc2ccc(F)cc2)c1)C(=O)NCCCn1ccnc1	1	99*	nt	i	-3	-3	39	80	eIF4H inh retest=0;PABP FP inh retest=0
COc1ccc(C2=[N+]([O-])C(C)(C)C(c3ccccc3)=N2)cc1	-8	9	nt	i	1	1	-2	-7
Cc1cccc(N/C(N)=N/c2nc(C)cc(=O)[nH]2)c1	6	-1	nt	i	-5	-3	-3	5
COc1cc(C(=O)N(Cc2ccccc2)c2cccc(C)c2)ccc1OCC(=O)N1CCOCC1	nt	nt	-9	nt	0	3	-2	nt

Later entries
SMILES	PABP FP inh	CSC inhib	Yeast UUG start	Rce1 inh	MT1-MMP act inh	MT1-MMP act inh RFP	Env fusion inh	eIF4H inh	others
CC(=O)C(C(c1ccccc1)N1CCCc2ccccc21)N1CCOCC1 (stereo not drawn)	nt	nt	-7	nt	-11	2	6	nt
CCN(CCn1cccn1)Cc1cn[nH]c1-c1ccc(-c2ccccc2)cc1	10	20	nt	i	-8	-4	-5	2
COc1cc(OC)cc(C(=O)NNC(=O)c2cc(S(=O)(=O)N3CCOCC3)ccc2F)c1	nt	-8	-7	nt	5	3	-9	nt
Cn1cc(Br)c(NC(=O)/C=C/C(=O)O)n1	7	-16	-10	i	0	2	22	6
O=c1c(-c2ccc(Br)cc2)coc2c(CN3CCCCC3)c(O)ccc12	1	nt	-21	i	-3	2	21	-1
O=C(NCc1ccco1)C(=S)N1CCCC1	-11	-3	-14	i	-3	-6	12	7
O=C(COC(=O)c1cc(S(=O)(=O)N2CCCCC2)ccc1N1CCOCC1)NCCc1ccc(F)cc1	5	-1	nt	i	5	4	15	-4
CCOC(=O)c1ccc(NC(=S)N(CCCN2CCN(CC)CC2)Cc2ccco2)cc1	-10	15	-25	i	0	2	-9	5
Cc1cc2[nH]c(=O)c(=O)[nH]c2cc1S(=O)(=O)Nc1cccc(Cl)c1C	0	nt	4	i	3	5	12	-6
Cc1ccc(OCC(=O)Nc2ccc3c(c2)OCO3)c(C)c1	-8	1	nt	i	1	2	-46	-7
O=C(NC1CCCCCCC1)C1CCC(CNc2c(N3CCCC3)c(=O)c2=O)CC1 (stereo not drawn)	-19	6	3	i	5	2	-18	4
Cc1ccc(CNC(=S)Nc2ccc(OC(F)F)cc2C)cc1	15	-8	nt	i	1	-2	-6	-5
COc1ccc(-c2cnc3c(c2)CCC3(C#N)C#N)cc1	-2	33	-16	i	15	-2	nt	4
O=c1c2cn[nH]c2[nH]c(=S)n1-c1cccc(Cl)c1	34	-9	-10	i	0	6	-20	-5
Cc1cc(=O)[nH]c(N/N=C/c2c(C)oc3ccccc23)n1	19	-3	-17	i	-1	-1	-4	90	eIF4H inh retest=-19;PABP FP inh retest=7
Cc1cccc(NC(=O)c2ccc(Cl)c(S(=O)(=O)N3CCCC3)c2)n1	7	0	-8	i	2	-5	-8	2
Cc1nnc(NC(=O)CCSc2ccccc2)s1	-2	-2	-12	i	-7	-4	11	-9
O=C(C1CCN(S(=O)(=O)N2CCOCC2)CC1)N1CCN(Cc2ccc3c(c2)OCO3)CC1	-6	nt	-5	nt	2	4	nt	-2
Cc1ccc(S(=O)(=O)NCC(c2cccnc2)N(C)C)cc1 (stereo not drawn)	-8	-7	0	i	-1	4	-5	-4
CN(Cc1ccccc1)C(=O)c1cccc(NC(=O)Cc2cccc([N+](=O)[O-])c2)c1	nt	-3	8	nt	4	-10	-9	nt
CC(C)(C)n1nc2c(c1NC(=O)c1cc(Cl)ccc1[N+](=O)[O-])CS(=O)(=O)C2	8	10	3	i	1	2	-6	-1
